KCNQ2 block = KCNQ2 potassium channel inhibitors, primary screen, cell-based, CHO-K1, FluxOR thallium flux, B-score (AID 2156); B-score at 10 µM; 20 min; hits give low values; only compounds with negative scores are shown here; some inactives read as strong as hits; 1.1% of 310,000 active;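 active = fluorescence ratio B-score at most minus 3 library SDs, with starting brightness B-score within 2 library SDs, cut at about -5.5 in these data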
Target sequence (O88943 whole entry, looked up): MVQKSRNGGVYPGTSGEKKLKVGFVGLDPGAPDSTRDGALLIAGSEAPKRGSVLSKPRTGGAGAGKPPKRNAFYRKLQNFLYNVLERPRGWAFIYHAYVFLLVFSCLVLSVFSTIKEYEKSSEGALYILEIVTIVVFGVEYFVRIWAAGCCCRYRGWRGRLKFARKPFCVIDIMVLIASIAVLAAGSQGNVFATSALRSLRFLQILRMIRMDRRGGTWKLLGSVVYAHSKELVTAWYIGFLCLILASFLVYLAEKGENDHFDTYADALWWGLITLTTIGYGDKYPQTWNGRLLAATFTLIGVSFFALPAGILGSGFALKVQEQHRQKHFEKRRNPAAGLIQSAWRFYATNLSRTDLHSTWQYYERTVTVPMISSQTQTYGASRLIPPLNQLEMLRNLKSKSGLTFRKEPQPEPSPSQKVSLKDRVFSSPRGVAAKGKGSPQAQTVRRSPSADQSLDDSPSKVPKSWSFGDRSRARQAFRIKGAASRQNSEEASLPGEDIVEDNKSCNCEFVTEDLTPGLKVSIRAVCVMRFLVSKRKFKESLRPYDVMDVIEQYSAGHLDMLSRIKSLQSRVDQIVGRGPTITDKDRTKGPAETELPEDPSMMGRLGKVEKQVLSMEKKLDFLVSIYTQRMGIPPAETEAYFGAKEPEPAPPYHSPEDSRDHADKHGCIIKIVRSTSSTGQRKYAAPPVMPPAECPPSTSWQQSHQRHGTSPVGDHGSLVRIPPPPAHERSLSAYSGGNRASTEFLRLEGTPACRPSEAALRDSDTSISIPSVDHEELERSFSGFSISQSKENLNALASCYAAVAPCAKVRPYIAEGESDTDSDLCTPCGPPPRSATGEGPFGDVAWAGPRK
KCNQ2 block baseline = further read-out of KCNQ2 block, marked with its call; B-score; measured here: initial fluorescence intensity artifact check;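 brightness before thallium and not channel activity; 0 = typical well and far values either way flag optical interference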
Numbers without * were called inactive. This is a subset, so the mix of outcomes need not match the whole.

`Cc1nonc1C(=O)N/N=C/c1ccc(O)cc1O` gave KCNQ2 block inactive and KCNQ2 block baseline 1.4.
For CC1CCCN(C(=O)c2ccncc2)C1 (stereo not given) the results were KCNQ2 block inactive and KCNQ2 block baseline -0.45.
COC(=O)c1ccc(CN2CCCC(CO)(Cc3ccccc3F)C2)cc1 (stereo not given) was read as KCNQ2 block inactive and KCNQ2 block baseline 0.23.
COc1ccc(/C(O)=C2/C(=O)C(=O)N(CCCC(=O)O)C2c2ccc(OC)cc2)cc1 (stereo not given) was read as KCNQ2 block inactive and KCNQ2 block baseline 1.1.
Screening CC1N(O)C(c2ccc(Cl)cc2Cl)N(O)C1(C)C (stereo not given) returned KCNQ2 block inactive and KCNQ2 block baseline -0.12.
`CN=CC1=C(O)c2ccccc2C1=O` gave KCNQ2 block inactive and KCNQ2 block baseline -1.7.
Screening CCCCNC(=S)N1CCn2cccc2C1c1ccccc1 (stereo not given) returned KCNQ2 block inactive and KCNQ2 block baseline 0.8.
For O=C(CSc1ccc2nnc(-c3ccncc3)n2n1)NCC1CCCO1 (stereo not given) the results were KCNQ2 block inactive and KCNQ2 block baseline -0.02.
Cc1cc(OCC(=O)N(Cc2ccccc2)C2CCS(=O)(=O)C2)ccc1Cl (stereo not given) was read as KCNQ2 block inactive and KCNQ2 block baseline -0.61.
For O=C(NC(=O)c1cccc(OC(F)(F)C(F)F)c1)OC1CCS(=O)(=O)C1 (stereo not given) the results were KCNQ2 block inactive and KCNQ2 block baseline -0.73.
Cc1c(C(=O)NC2CCCc3ccccc32)cccc1[N+](=O)[O-] (stereo not given) was read as KCNQ2 block inactive and KCNQ2 block baseline -0.06.
Screening Cc1ccc(C(=O)NCC2(c3ccccc3)CCCC2)cc1 returned KCNQ2 block inactive and KCNQ2 block baseline -1.1.
Screening O=c1[nH]c(=O)c2nc3c4ccccc4c4ccccc4c3nc2[nH]1 returned KCNQ2 block inactive and KCNQ2 block baseline -0.43.
Screening CCOc1ccc(-n2c(C)cc(C(=O)CCl)c2C)cc1 returned KCNQ2 block inactive and KCNQ2 block baseline -0.08.
O=C(Nc1cccc2ccccc12)c1nn(C23CC4CC(CC(C4)C2)C3)cc1[N+](=O)[O-] was read as KCNQ2 block -9.1* and KCNQ2 block baseline 1.8*.
CC(C)CN(C(=O)c1cc([N+](=O)[O-])cc([N+](=O)[O-])c1)C1CCS(=O)(=O)C1 (stereo not given) was read as KCNQ2 block inactive and KCNQ2 block baseline 1.1.
CC(=O)Oc1c(Cl)cc(N(C(C)=O)S(=O)(=O)c2ccccc2)c2ccccc12 was read as KCNQ2 block inactive and KCNQ2 block baseline 1.4.
COc1ccc(S(=O)(=O)Nc2ccc(F)c(Cl)c2)cc1OC was read as KCNQ2 block inactive and KCNQ2 block baseline 3.4.
COC(=O)c1ccc(OC(=O)CCS(=O)(=O)c2ccc(C)cc2)cc1 was read as KCNQ2 block inactive and KCNQ2 block baseline 0.68.
`CC(C)(C)C1(O)CC(C(F)(F)F)=NN1C(=O)CCc1ccccc1` (stereo not given) gave KCNQ2 block inactive and KCNQ2 block baseline 1.2.
`CSc1nsc(SC)c1C(=O)Nc1ccc(C(C)(C)C)cc1` gave KCNQ2 block inactive and KCNQ2 block baseline -0.07.
`O=C(C(Cc1ccc(Cl)cc1)NS(=O)(=O)c1ccccc1)N1CC[C@@]2(O)CCCC[C@H]2C1` (stereo not given in full) gave KCNQ2 block inactive and KCNQ2 block baseline -0.42.
COCCN(C(=O)COC(=O)c1ccc(C=O)cc1)c1c(N)n(Cc2ccccc2)c(=O)[nH]c1=O was read as KCNQ2 block inactive and KCNQ2 block baseline 0.1.
For O=C(COc1ccccc1Cl)c1ccc2c(c1)CCCC2 the results were KCNQ2 block inactive and KCNQ2 block baseline 0.1.
For O=C(NCC1CCCO1)c1ccc([N+](=O)[O-])o1 (stereo not given) the results were KCNQ2 block inactive and KCNQ2 block baseline -1.1.
For O=C(Nc1ccccc1N1CCCC1)c1ccc(N2CCCC2=O)cc1 the results were KCNQ2 block inactive and KCNQ2 block baseline 2.3.
`COc1cc(/C=C/C(=O)O)cc(S(=O)(=O)Nc2ccc3[nH]c(=O)[nH]c3c2)c1OC` gave KCNQ2 block inactive and KCNQ2 block baseline 0.2.
Screening Cn1cnc2c1c(=O)n(Cc1cccc(F)c1)c(=O)n2C returned KCNQ2 block inactive and KCNQ2 block baseline -0.28.
`Cn1c(=O)c2cc3ccc(Cl)cc3nc2n(C)c1=O` gave KCNQ2 block inactive and KCNQ2 block baseline 2.2.
For COc1cc(/C=C2/SC(=O)N(Cc3ccccc3)C2=O)ccc1OCc1ccncc1 the results were KCNQ2 block inactive and KCNQ2 block baseline 0.33.
`COc1ccc(CCN2CC(O)=C(c3nc(C)cs3)C2=N)cc1OC` gave KCNQ2 block inactive and KCNQ2 block baseline -1.6.
For CCOC(=O)C1=C(NC(=S)NC(=O)c2ccccc2)c2ccccc2CC1(C)C the results were KCNQ2 block inactive and KCNQ2 block baseline -0.16.
`COC(=O)c1ccc(CSc2ncnc3c2nnn3-c2ccc(OC)cc2)o1` gave KCNQ2 block inactive and KCNQ2 block baseline -0.12.
For Cc1cccc(N(CC(=O)NC2CCCCC2)C(=O)CCCC(=O)Nc2ccccn2)c1 the results were KCNQ2 block inactive and KCNQ2 block baseline -0.65.
CCCCN(C(=O)c1ccc(-c2ccc([N+](=O)[O-])cc2)o1)c1c(N)n(CCCC)c(=O)[nH]c1=O was read as KCNQ2 block inactive and KCNQ2 block baseline 1.2.
For c1ccc(CCNCCCOc2cccc3ccccc23)cc1 the results were KCNQ2 block inactive and KCNQ2 block baseline -0.53.
`Cn1c(Cc2ccccc2)nnc1SCC(=O)c1cccs1` gave KCNQ2 block inactive and KCNQ2 block baseline -2.6.
For CN1CCN(c2nc3c(c(=O)n(C)c(=O)n3C)n2CC(N)=O)CC1 the results were KCNQ2 block inactive and KCNQ2 block baseline 0.2.
`Cc1c(C(=O)N2CCC(C)CC2)cccc1[N+](=O)[O-]` gave KCNQ2 block inactive and KCNQ2 block baseline -0.75.
Cc1c(S(=O)(=O)Nc2ccc(Oc3ccccc3)cc2)c(=O)n(C)c(=O)n1C was read as KCNQ2 block inactive and KCNQ2 block baseline -0.1.
`COc1ccccc1NC(=O)CN1C(=O)NC(C)(C)C1=O` gave KCNQ2 block inactive and KCNQ2 block baseline 2.2.
Screening O=C(OCc1cc([N+](=O)[O-])cc2c1OCOC2)c1ccc2ccccc2n1 returned KCNQ2 block inactive and KCNQ2 block baseline -1.3.
Screening O=[N+]([O-])c1ccc(NCc2ccc3c(c2)OCO3)cc1 returned KCNQ2 block inactive and KCNQ2 block baseline 1.3.
Screening CCNc1nc2cccnc2s1 returned KCNQ2 block inactive and KCNQ2 block baseline 0.75.
Screening Brc1ccc(-c2nnc(-c3ccccc3)o2)o1 returned KCNQ2 block inactive and KCNQ2 block baseline 0.45.
`O=C(CSc1ccc(-c2cccnc2)nn1)Nc1ccc(F)cc1` gave KCNQ2 block inactive and KCNQ2 block baseline 0.01.
O=C(c1ccc(Cl)c(S(=O)(=O)Nc2ccccc2C(=O)N2CCc3ccccc3C2)c1)N1CCc2ccccc2C1 was read as KCNQ2 block inactive and KCNQ2 block baseline -2.6.
`O=C(OC1CCOC1=O)c1ccc2ncsc2c1` (stereo not given) gave KCNQ2 block inactive and KCNQ2 block baseline 1.2.
For COCCNC(=O)C1(C)Oc2ccccc2NC1=O (stereo not given) the results were KCNQ2 block inactive and KCNQ2 block baseline -0.18.
Screening Cc1ccc(N2C(=O)c3ccc(C(=O)N4CCN(c5cccc(C)c5C)CC4)cc3C2=O)cc1 returned KCNQ2 block inactive and KCNQ2 block baseline -0.77.
For CC(C)CNC(=O)C1CCCN1S(=O)(=O)c1ccc(Cl)cc1 (stereo not given) the results were KCNQ2 block inactive and KCNQ2 block baseline 0.21.
For COc1ccc2nc(SCC(=O)NCCc3ccccc3)[nH]c2c1 the results were KCNQ2 block inactive and KCNQ2 block baseline -1.2.
CCOC(=O)c1c(NC(=O)c2cc(C(C)C)on2)sc(C(C)=O)c1C was read as KCNQ2 block inactive and KCNQ2 block baseline -2.3.
CCO[C@@H]1OC(C(=O)O)=C[C@H](C2CC2)[C@H]1CCCO was read as KCNQ2 block inactive and KCNQ2 block baseline 0.48.
O=S(=O)(Cc1ccc(Cl)cc1)CC(O)COCc1ccccc1 (stereo not given) was read as KCNQ2 block inactive and KCNQ2 block baseline 0.54.
Screening CC(C)CC(=O)Nc1ncc([N+](=O)[O-])s1 returned KCNQ2 block inactive and KCNQ2 block baseline 1.3.
Screening CCCCCCCCCCCCC(NC(C)=O)(C(=O)OCC)C(=O)OCC returned KCNQ2 block inactive and KCNQ2 block baseline -0.02.
For NC(=O)C1CCCN1 (stereo not given) the results were KCNQ2 block inactive and KCNQ2 block baseline 0.6.
For O=C(NC1CC1)C1CCN(C2CCN(C(=O)CC3=CCCCC3)CC2)CC1 the results were KCNQ2 block inactive and KCNQ2 block baseline -2.3.
COc1ccc(C(=O)NCC(=O)OCC(=O)N(C)c2ccccc2)cc1 was read as KCNQ2 block inactive and KCNQ2 block baseline 0.14.
Screening CCN(CCNC(=O)C1CCCN(S(=O)(=O)CC)C1)c1ccccc1 (stereo not given) returned KCNQ2 block inactive and KCNQ2 block baseline 0.13.
`COc1ccc(O)c(/C=N/NC(=O)CCC(=O)Nc2ccc(C)cc2)c1` gave KCNQ2 block inactive and KCNQ2 block baseline 1.1.
O=C1c2cccnc2C(O)N1Cc1ccc(F)cc1 (stereo not given) was read as KCNQ2 block inactive and KCNQ2 block baseline 0.41.
For O=C(Cc1c(F)cccc1Cl)Nc1ccccc1-c1ccccc1 the results were KCNQ2 block inactive and KCNQ2 block baseline 0.36.
`CNc1nc(Nc2ccc(Br)cc2)nc(N)c1[N+](=O)[O-]` gave KCNQ2 block inactive and KCNQ2 block baseline 1.2.
Screening CN(CCO)c1ccc(C(C(=O)c2ccccc2)c2ccc(N(C)CCO)cc2)cc1 returned KCNQ2 block inactive and KCNQ2 block baseline -1.9.
Screening COc1cccc2cc(-c3csc(CCn4nc(C)cc4C)n3)c(=O)oc12 returned KCNQ2 block inactive and KCNQ2 block baseline -0.01.
`COc1cc(OC)cc(-c2nnc(NC(=O)c3ccc4c(c3)OCCO4)o2)c1` gave KCNQ2 block inactive and KCNQ2 block baseline -0.57.
Screening COC(=O)c1ccc(-n2c(C)cc(C(=O)CSc3cccc[n+]3[O-])c2C)cc1 returned KCNQ2 block inactive and KCNQ2 block baseline -1.8.
Screening C(=N\Nc1ccc2ccccc2n1)/c1ccc2c(c1)OCO2 returned KCNQ2 block inactive and KCNQ2 block baseline -0.92.
Screening Fc1ccccc1CSc1nnc(-c2ccccc2)o1 returned KCNQ2 block inactive and KCNQ2 block baseline -0.92.
For CC(C)NC(=O)c1onc(CSc2ccc(Cl)cc2)c1C(=O)O the results were KCNQ2 block inactive and KCNQ2 block baseline -1.2.
For O=C(Nc1cc(-c2nc3ccccc3s2)ccc1Cl)c1ccc2c(c1)OCO2 the results were KCNQ2 block inactive and KCNQ2 block baseline 1.
Screening CC1(OC(=O)C2CCCC2)C(=O)C=C2C=C(c3ccsc3)N(CC3CC3)C=C2C1=O (stereo not given) returned KCNQ2 block inactive and KCNQ2 block baseline 1.4.
Fc1ccccc1N1CCN(c2nc(-c3cccs3)nc3ccccc23)CC1 was read as KCNQ2 block inactive and KCNQ2 block baseline 0.25.
For CCOCC(=O)Nc1cc(C(=O)NCCc2ccccc2)ccc1Cl the results were KCNQ2 block inactive and KCNQ2 block baseline -1.6.
`Cc1cc(C)cc(NC(=O)COc2ccc3c(C)c(Cc4ccccc4)c(=O)oc3c2)c1` gave KCNQ2 block inactive and KCNQ2 block baseline -0.5.
COCCCn1c(C)c(C(C)=O)cc(NC(=O)c2ccccc2)c1=O was read as KCNQ2 block inactive and KCNQ2 block baseline 0.83.
Screening COc1ccc(/C(C)=N/NC(=S)NCCc2ccccc2)cc1 returned KCNQ2 block inactive and KCNQ2 block baseline -0.94.
Screening CC(=O)C(Cc1ccccc1)NC(=O)CCl (stereo not given) returned KCNQ2 block inactive and KCNQ2 block baseline -0.2.
Screening COc1ccc(C2c3c(oc4ccccc4c3=O)C(=O)N2CC2CCCO2)cc1 (stereo not given) returned KCNQ2 block inactive and KCNQ2 block baseline -1.9.
For CCCCn1c(N)c(N(CC)C(=O)C2=COCCO2)c(=O)[nH]c1=O the results were KCNQ2 block inactive and KCNQ2 block baseline -0.15.

Structures shown so far that have fluorine, in the order listed:
COC(=O)c1ccc(CN2CCCC(CO)(Cc3ccccc3F)C2)cc1 (stereo not given) was read as KCNQ2 block inactive and KCNQ2 block baseline 0.23.
For O=C(NC(=O)c1cccc(OC(F)(F)C(F)F)c1)OC1CCS(=O)(=O)C1 (stereo not given) the results were KCNQ2 block inactive and KCNQ2 block baseline -0.73.
COc1ccc(S(=O)(=O)Nc2ccc(F)c(Cl)c2)cc1OC was read as KCNQ2 block inactive and KCNQ2 block baseline 3.4.
`CC(C)(C)C1(O)CC(C(F)(F)F)=NN1C(=O)CCc1ccccc1` (stereo not given) gave KCNQ2 block inactive and KCNQ2 block baseline 1.2.
Screening Cn1cnc2c1c(=O)n(Cc1cccc(F)c1)c(=O)n2C returned KCNQ2 block inactive and KCNQ2 block baseline -0.28.
`O=C(CSc1ccc(-c2cccnc2)nn1)Nc1ccc(F)cc1` gave KCNQ2 block inactive and KCNQ2 block baseline 0.01.
O=C1c2cccnc2C(O)N1Cc1ccc(F)cc1 (stereo not given) was read as KCNQ2 block inactive and KCNQ2 block baseline 0.41.
For O=C(Cc1c(F)cccc1Cl)Nc1ccccc1-c1ccccc1 the results were KCNQ2 block inactive and KCNQ2 block baseline 0.36.
Screening Fc1ccccc1CSc1nnc(-c2ccccc2)o1 returned KCNQ2 block inactive and KCNQ2 block baseline -0.92.
Fc1ccccc1N1CCN(c2nc(-c3cccs3)nc3ccccc23)CC1 was read as KCNQ2 block inactive and KCNQ2 block baseline 0.25.
